Vaccinia mCherry: qHTS for Stage-Specific Inhibitors of Vaccinia Orthopoxvirus: mCherry Reporter Primary qHTS | Vaccinia virus mCherry reporter infection, fluorescence; about a quarter of the inactives have no number | Potency, µM (top dose mostly 36.5 µM), for the others: top-dose activity change, negative = inhibition, hits mostly inhibitors | 310,000 compounds, 0.63% hits; active = well fitted inhibition curve with a large enough effect; inconclusive = small, poorly fitted or top-dose-only effect; inactive = no such curve, though single readings can be large or run the other way; tested in A549 cells; note: nearly all actives have a fitted effect of over 35% in size; inactives centre near -10
VACV Venus inh: qHTS for Stage-Specific Inhibitors of Vaccinia Orthopoxvirus: Venus Reporter Primary qHTS; Vaccinia virus Venus reporter expression, fluorescence; Potency, µM (titrated, usually from 36.5 µM), without a hit: at the highest dose activity change, negative = inhibition, hits mostly inhibitors; 330,000 compounds, 0.46% hits; active means well fitted inhibition curve with a large enough effect; inconclusive means small, poorly fitted or top-dose-only effect; inactive means no such curve, though single readings can be large or run the other way; tested in A549 cells; note: nearly all actives have a fitted effect of over 30% in size; inactives centre near -10
* marks the source's active call; other numbers are inactive results; i = inactive; ? = inconclusive; · = not tested or not shown; & = joins results of further samples; [ ] = dose if it differs, or a comment. % is set by controls: 0 for no effect and ±100 for the full control effect; potency is the fitted concentration of half-maximal effect.

SMILES | Vaccinia mCherry | VACV Venus inh
O=C(NCc1cccc2[nH]ccc12)C1CCC(=O)N(CCc2ccc(Cl)cc2)C1 (stereo not given) | -1% | -14%
COCc1cc(=O)n2[nH]cc(-c3ccccc3)c2n1 | -19% | -21%
O=C(Nc1nnc(CCc2ccccc2)s1)c1ccccc1F | i | 0%
O=C(c1ccccc1)N1CCN(Cc2ccccc2C(F)(F)F)CC1 | -22% | -16%
CC(C)[C@H](NC(=O)Nc1ccc(Oc2ccccc2)cc1)C(=O)O | -15% | -5%
COc1ccc(OC)c(NC(=O)CCCN2C(=O)C3C4C=CC(C4)C3C2=O)c1 (stereo not given) | 6% | -2%
CC(=O)N1CCc2cc(Br)cc(S(=O)(=O)N3CCC(C(=O)O)CC3)c21 | -12% | -7%
CCCNC(=O)c1c(NC(=O)c2ccccc2)sc2c1CCC(C(C)(C)C)C2 (stereo not given) | -14% | -6%
CCCN(CCC)Cc1c(C(=O)N/N=C/c2ccco2)nnn1-c1nonc1N | -16% | -2%
CC1CCCCN1C(=S)NCCc1ccccc1 (stereo not given) | -9% | 4%
CCS(=O)(=O)N1Cc2ccccc2CC1C(=O)Nc1nnc(C2CC2)s1 (stereo not given) | i | -2%
CCc1c(C)nc(N)n2c(SCC(=O)NC3CCCCC3)nnc12 | -5% | 8%
Nc1nc(-c2ccc3c(c2)CCC(=O)N3)cs1 | ? | ?
CC1CN(C(=O)Nc2ccc(C(=O)NCCc3ccccc3Cl)cc2)c2ccccc2S1 (stereo not given) | -18% | -11%
COc1cccc(C2C(C(C)=O)=C(C)Nc3ncnn32)c1 (stereo not given) | -3% | 4%
Cc1cc(C)c(NS(=O)(=O)c2ccc3c(c2)CC(C)N3C(=O)C2CCC2)c(C)c1 (stereo not given) | -14% | -17%
Cc1ccc(C)c(Nc2nnc(-c3ccc(C)c(S(=O)(=O)N4CCN(C)CC4)c3)c3ccccc23)c1 | -29% | -16%
COc1ccc(NC(=O)c2c(C)nn(Cc3ccccc3)c2C)cc1S(=O)(=O)N(C)C | i | -12%
CCOC(=O)C(=NCCCN(C)C)NNc1cc(C(F)(F)F)ccc1Cl | -25% | -7%
CCOC(=O)c1nc(C)sc1-c1ccnn1S(=O)(=O)c1ccc(Cl)cc1Cl | -7% | -24%
CC(C)N(CCO)Cc1nc(C(c2ccccc2)c2ccccc2)no1 | -14% | -24%
CC(=O)C1(O)C(C)CC2C3CC=C4CC(O)CCC4(C)C3CCC21C (stereo not given) | -26% | -1%
Cn1c(=O)cc(SCC(=O)Nc2cccc(C#N)c2)c2ccc(Cl)cc21 | -10% | -12%
O=C(/C=C/c1ccccc1)NC(=S)NNC(=O)Cc1cccs1 | ? | -29%
CCc1nc2c(OCCn3cccc3)cccn2c1N(C)C(=O)c1ccc(OC)cc1 | i | -30%

The results go on.
SMILES | Vaccinia mCherry | VACV Venus inh
CCc1ccc(S(=O)(=O)Nc2ccc(O)c3ccccc23)cc1 | -5% | -14%
Cc1ccc(NC(=O)Cn2sc3nc(C)cc(C)c3c2=O)c(Cl)c1 | -25% | 0%
CCOc1cccc(CN(CC)CC2CCCN(CCc3cccc(OC)c3)C2)c1O (stereo not given) | -3% | -13%
CN(NS(=O)(=O)c1ccc(Cl)cc1)c1ncc(C(F)(F)F)cc1Cl | i | -11%
CCOC(=O)c1ccc(S(=O)(=O)Nc2nc3cc(S(=O)(=O)NC4=NCCCCC4)ccc3s2)cc1 | -11% | 4%
O=C(NCCc1ccc(Cl)cc1)C1CCC(CNc2c(N3CCCCC3)c(=O)c2=O)CC1 (stereo not given) | 6% | -9%
CCc1ccc2[nH]c3nc(SCc4nnc(-c5ccc(C)cc5)o4)nnc3c2c1 | -9% | -2%
COc1cccc(NC(=O)C2(C)CCN2C(=O)C2CCCCC2)c1 (stereo not given) | -13% | -3%
O=C1Nc2ccccc2N=C(c2ccc3c(c2)OCO3)C1N(CCc1ccccc1)C(=O)CSc1ncccn1 (stereo not given) | 10% | -8%
Cc1cc(C(=O)N2CCN(C/C=C/c3ccccc3)CC2)cs1 | -19% | -13%
O=C(NCCc1ccccc1)c1cc(S(=O)(=O)N2CCCCC2)c[nH]1 | -13% | -16%
CCn1cc2nc(SCc3cccc(F)c3)n(CCc3ccccc3)c(=O)c2n1 | -26% | -20%
Cc1cccc(CN2CCc3nc(N4CCN(c5ccccn5)CC4)ncc3C2)c1 | ? | ?
Cc1ccc(S(=O)(=O)N2C[C@H]3C(=O)C[C@@H](c4ccccc4F)N(S(=O)(=O)c4ccc(C)cc4)[C@H]3C[C@H]2c2cccc3ccccc23)cc1 | -14% | -9%
Cc1ccc(-c2nn3c(C)nnc3s2)cc1NC(=O)c1ccc(-c2cccc(Cl)c2)o1 | -11% | -16%
CN(C(=O)COc1ccccc1)c1nnc(-c2cccnc2)s1 | -13% | -6%
CCOC(=O)c1cc(NC(=O)SCC(=O)O)c(C)nc1C | · | 0%
CCOC(=O)Cn1c(=O)n(C2CCCCC2)c2nc(-c3cccc(F)c3)nc(C(N)=O)c21 | -4% | 2%
O=C(CCCNC(=O)c1ccc(Cl)cc1)Nc1nccs1 | 2% | 14%
Cn1c(CNC(=O)c2ccc3c(c2)OCO3)nnc1SCC(=O)Nc1ccc(F)cc1F | -24% | -6%
Cc1ccc(NC(=S)N2CCN(Cc3ccc4c(c3)OCO4)CC2)c(C)c1 | -7% | -14%
C[C@@H](C(=O)N1CCN(Cc2ccc3c(c2)OCO3)CC1)n1nnc2ccccc2c1=O | -8% | -6%
CC[C@H](C)[C@H](NC(=O)c1ccc(Cl)cc1)C(=O)OCC(=O)c1ccc2c(c1)NC(=O)CO2 | -22% | ?
CCOC(=O)c1ccc(NC(=O)c2sc3nc4n(c(=O)c3c2C)CCC4)cc1 | -13%&-19% | -20%&-16%
CC(=O)Nc1ccc(S(=O)(=O)NCCC(=O)NCCc2ccc(F)cc2)cc1 | · | -11%

Further entries follow:
SMILES | Vaccinia mCherry | VACV Venus inh
COc1ccc(Nc2nc(NCc3ccco3)nc(N/N=C/c3ccc(O)cc3)n2)cc1 | ? | -26%
S=C(Nc1cccc2ccccc12)Nc1cccc2ccccc12 | ? | -16%
CCc1nn2c(N(C)CCO)cc(C)nc2c1-c1ccc(F)cc1 | i | -16%
O=C(/C=C/c1cccc([N+](=O)[O-])c1)NCc1ccccc1 | -9% | -11%
Cc1ccc(-c2nnc(Nc3ccc4c(c3)OCO4)c3ccccc23)cc1S(=O)(=O)NC(C)C | ? | ?
Cn1c(Oc2ccccc2)c(C=O)c2ccccc21 | · | -30%
Cc1noc(C)c1CSCC(=O)N(C)CC(=O)Nc1ccc(F)cc1 | -10% | -17%
C[C@H]1CCC/C=C/[C@@H]2C[C@H](O)C[C@H]2[C@H](O)/C=C/C(=O)O1 | ? | ?
CCCCOc1ccc(C(=O)Nc2ccc(N3CCN(C)CC3)cc2)cc1 | · | 19%
CCN(CC)S(=O)(=O)c1ccc2c(c1)nc(CCC(=O)OCC(=O)Nc1cc(OC)cc(OC)c1)n2C | -2% | -4%
COC(=O)C1=C(c2cccc(C#N)c2)C[C@@H]2CC[C@H]1N2C(=O)NCCc1ccccc1 | -6% | -13%
Cc1ccc2nc(/C(C#N)=C/c3ccc(-c4ccc(C(=O)OC(C)C)cc4)o3)[nH]c2c1 | -26% | -1%
COc1cccc(C(O)c2ncc(-c3ccc(Cl)cc3)[nH]2)c1 (stereo not given) | i | -28%
O=c1c(=O)n(Cc2c(F)cccc2Cl)ccn1Cc1ccccc1 | 7% | 0%
CC(C)NC(=O)N(C)C[C@H]1Oc2c(NC(=O)Nc3ccc4c(c3)OCO4)cccc2C(=O)N([C@H](C)CO)C[C@@H]1C | i | -4%
COc1ccc(O[C@@H]2O[C@H](COC(C)=O)[C@@H](OC(C)=O)[C@H](OC(C)=O)[C@H]2NC(C)=O)cc1 | -14% | -2%
Nc1cc(S(=O)(=O)N2CCOCC2)ccc1Oc1cccc(Br)c1 | -23% | -20%
NC(=O)CC(NC(=O)c1ccccc1)C(=O)O (stereo not given) | 2% | -4%
Cc1c(NC(=O)C(C)NCC2CCCO2)c(=O)n(-c2ccccc2)n1C (stereo not given) | · | -10%
Cc1cc2nc(-c3ccc4c(c3)CCC4)ccn2n1 | -16% | -15%
CCOc1ccccc1NC(=O)CCc1c(C)nc2cc(-c3ccccc3)nn2c1C | -11% | -2%
O=S1(=O)C[C@@H](N2CCC[C@@H]2CO)[C@H](COCc2ccccc2)N1 | 19% | 1%
Cc1c2cnn(-c3ccccc3)c(=O)c2c(C)n1CCCC(=O)N1CCN(c2ncccn2)CC1 | ? | -20%
Cc1nc(S(=O)(=O)Cc2ccc(Cl)cc2)nc2c1CCC2 | 6% | 3%
COc1ccccc1Cn1c(=S)[nH]c2ccc(Br)cc2c1=O | i | -13%

Later entries.
SMILES | Vaccinia mCherry | VACV Venus inh
CC(=O)Nc1nnc2n1CCS2 | -4% | -4%
O=C(NCCCc1ccccc1)c1ccncc1 | -14% | -11%
COc1ccccc1-c1nnc2sc(COc3ccc(Cl)cc3)nn12 | -2% | -20%
O=C(Nc1ccc(-c2nc3cc(NC(=O)c4ccc(F)cc4)ccc3o2)cc1)c1ccc(F)cc1 | -10% | -11%
Cc1coc2c1c(C)cc1oc(=O)c(CC(=O)NCC(=O)NCC(=O)O)c(C)c12 | -12% | -12%
CCOc1ccc2nc(-c3ccccc3)nc(SCC(=O)OC)c2c1 | -16% | -1%
CCCc1ccc(OCC(=O)Nc2sc(C(=O)OCC)c(C)c2C(=O)OCC)cc1 | -3% | 3%
CCc1c(C)[nH]c(=S)c(C#N)c1C | -17% | -12%
C/C(N)=C(/C#N)C(=O)CSc1nc2cc(Cl)ccc2c(=O)n1Cc1ccco1 | -2% | -17%
Cc1ccc(O)c(-c2cc(C(=O)Nc3c(C)n(C)n(-c4ccccc4)c3=O)[nH]n2)c1 | -26% | -18%
CC1(c2ccccc2Cl)NC(=O)N(CC(=O)NCc2ccco2)C1=O (stereo not given) | -13% | -1%
Cc1occc1C(=O)N1CCCC(CO)(Cc2ccc(F)cc2F)C1 (stereo not given) | -9% | -4%
COc1ccc(C(=O)N(Cc2ccccc2)Cc2ccc(OC)c(COc3ccc(NC(C)=O)cc3)c2)cc1 | -11% | ?
O=C(CCSc1nc(-c2ccco2)cc(C(F)(F)F)n1)N1CCN(c2ccccc2)CC1 | · | -7%
COc1ccc(Nc2ccccc2N)cc1 | 1% | 37%[activator]
C=CCN(c1ccccc1)S(=O)(=O)c1cccc(C(=O)Nc2ncccc2O)c1 | -17% | 1%
Cc1ccnc2cc(Cl)c(Cl)cc12 | 0% | -8%
CCOC(=O)c1ccc(NC(=O)C2(S(=O)(=O)c3ccc(Cl)cc3)CC2)cc1 | 4% | -2%
Cc1nn(-c2ccc(F)cc2)c(Cl)c1/C=N/NC(=O)c1ccc(O)cc1 | -8% | -20%
CCN(CC)C(=O)C1=C(C)N(CCCOC)C(=O)C(CC(=O)NCc2ccco2)C1 (stereo not given) | i | -10%
COc1ccn(C)c(=O)c1C#N | -14% | -8%
O=C(NC(Cc1c[nH]c2ccccc12)C(=O)N/N=C/c1ccc(Br)cc1)c1cccs1 (stereo not given) | ? | ?
COc1ccc(CNC(=O)c2cc(-c3ccc(C)cc3)nc3n[nH]c(-c4ccc(Br)cc4)c23)cc1 | -6% | -4%
CCN(CC)S(=O)(=O)c1cccc(NC(=O)COC(=O)c2ccc(Br)o2)c1 | -13% | -16%
CCOc1ccc(N2C(=O)C3C(c4ccc(O)cc4)NC(CCSC)(C(=O)OC)C3C2=O)cc1 (stereo not given) | -6% | -9%
O=C(C1CCCO1)N1N=C(c2ccc(Br)cc2)CC1c1ccco1 (stereo not given) | -15% | ?
Cc1nc2ccc(C(=O)N(C)Cc3ccco3)cn2c1N(C)CC1CCCCC1 | 23% | 1%

Entries above that contain an aryl methoxy group, in the order listed:
SMILES | Vaccinia mCherry | VACV Venus inh
COc1ccc(OC)c(NC(=O)CCCN2C(=O)C3C4C=CC(C4)C3C2=O)c1 (stereo not given) | 6% | -2%
COc1cccc(C2C(C(C)=O)=C(C)Nc3ncnn32)c1 (stereo not given) | -3% | 4%
COc1ccc(NC(=O)c2c(C)nn(Cc3ccccc3)c2C)cc1S(=O)(=O)N(C)C | i | -12%
CCc1nc2c(OCCn3cccc3)cccn2c1N(C)C(=O)c1ccc(OC)cc1 | i | -30%
CCOc1cccc(CN(CC)CC2CCCN(CCc3cccc(OC)c3)C2)c1O (stereo not given) | -3% | -13%
COc1cccc(NC(=O)C2(C)CCN2C(=O)C2CCCCC2)c1 (stereo not given) | -13% | -3%
COc1ccc(Nc2nc(NCc3ccco3)nc(N/N=C/c3ccc(O)cc3)n2)cc1 | ? | -26%
CCN(CC)S(=O)(=O)c1ccc2c(c1)nc(CCC(=O)OCC(=O)Nc1cc(OC)cc(OC)c1)n2C | -2% | -4%
COc1cccc(C(O)c2ncc(-c3ccc(Cl)cc3)[nH]2)c1 (stereo not given) | i | -28%
COc1ccc(O[C@@H]2O[C@H](COC(C)=O)[C@@H](OC(C)=O)[C@H](OC(C)=O)[C@H]2NC(C)=O)cc1 | -14% | -2%
COc1ccccc1Cn1c(=S)[nH]c2ccc(Br)cc2c1=O | i | -13%
COc1ccccc1-c1nnc2sc(COc3ccc(Cl)cc3)nn12 | -2% | -20%
COc1ccc(C(=O)N(Cc2ccccc2)Cc2ccc(OC)c(COc3ccc(NC(C)=O)cc3)c2)cc1 | -11% | ?
COc1ccc(Nc2ccccc2N)cc1 | 1% | 37%[activator]
COc1ccn(C)c(=O)c1C#N | -14% | -8%
COc1ccc(CNC(=O)c2cc(-c3ccc(C)cc3)nc3n[nH]c(-c4ccc(Br)cc4)c23)cc1 | -6% | -4%
